Screening data: PubChem, National Center for Advancing Translational Sciences (NCATS)
gsp antag: gsp mutant antagonism; AID 624288; Potency, µM (titrated, usually from 76.9 µM), inactives show at the top dose activity change, negative = inhibition, hits mostly inhibitors; 0.4% of 340,000 active; gsp-mutant cells, cAMP HTRF, 30 min; control for the full effect not named in the record; active = falling curve of any shape with a large fitted effect; inconclusive = falling curve, mostly with a smaller effect; inactive = flat or rising curve; cell line not stated here;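 further: intracellular cAMP measured with PDE inhibitor Ro 20-1724 present during compound exposure; potency means the concentration at half of the fitted maximal effect; on the % scale 0 is the no-effect control and ±100 the full control effect; nearly all actives have a fitted effect of over 65% in size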
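Measurement of cellular cAMP by homogeneous time-resolved fluorescence following a 30 min compound exposure at 37C. The PDE inhibitor […] was present throughout; the assay buffer was DPBS with 0.05% BSA and 0.005% Tween 20.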
TRPML1 inh: human mucolipin-1 channel inhibition | Q9GZU1 | AID 624415 | activity change, negative = inhibition, % (no concentration beside the values) | 0.02% of 390,000 active | TRPML1-inducible cells, Ca2+ dye fluorescence, FDSS; hits give low values; inhibition of EC80 agonist-evoked calcium signal; in the data active means activity change below about -50%; inconclusive means about -30% to -50%; inactive means above about -30%;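 further: stimulus is agonist 54-4 at its EC80 concentration; on the % scale 0 is the no-effect control and ±100 the full control effect; compound concentration not given in the record; the text of the record puts the active cut at -80%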
Target sequence (Q9GZU1 whole entry, looked up): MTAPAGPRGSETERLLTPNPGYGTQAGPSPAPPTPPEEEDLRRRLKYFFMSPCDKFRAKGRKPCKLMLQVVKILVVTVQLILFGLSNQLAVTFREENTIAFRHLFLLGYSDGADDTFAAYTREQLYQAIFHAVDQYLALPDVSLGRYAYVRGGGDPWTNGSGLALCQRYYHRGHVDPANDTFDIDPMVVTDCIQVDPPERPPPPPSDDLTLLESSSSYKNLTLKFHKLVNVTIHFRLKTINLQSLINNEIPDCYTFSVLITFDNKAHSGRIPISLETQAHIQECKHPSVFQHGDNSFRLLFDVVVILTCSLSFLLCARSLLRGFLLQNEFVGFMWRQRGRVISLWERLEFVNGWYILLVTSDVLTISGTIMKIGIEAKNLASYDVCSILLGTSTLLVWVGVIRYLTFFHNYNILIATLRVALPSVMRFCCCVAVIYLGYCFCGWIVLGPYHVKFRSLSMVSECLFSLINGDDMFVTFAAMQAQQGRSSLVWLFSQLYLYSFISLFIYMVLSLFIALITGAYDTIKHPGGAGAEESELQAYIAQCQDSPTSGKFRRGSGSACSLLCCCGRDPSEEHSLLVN
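Tet-induced TRPML1-DL cells loaded with Ca8 no-wash calcium dye were read kinetically on FDSS. Compound addition was followed by EC80 agonist 54-4 (4 uM final); inhibition was read over 110 s.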
gsp ag: agonists of gsp mutant (McCune-Albright syndrome) | gsp mutant cells, cAMP HTRF, 30 min; control for the full effect not named in the record | Potency, µM (top dose mostly 76.9 µM), for the others: at the top dose activation (cAMP increase), actives largely listed as activators | 0.13% of 340,000 active | AID 624287; active = well fitted activation curve with a large enough effect; inconclusive = small, poorly fitted or top-dose-only effect, or another doubt; inactive = no such curve, though single readings can be large or run the other way; cell line not stated here;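 further: phosphodiesterase inhibitor Ro 20-1724 added with compounds to block cAMP breakdown; potency means the concentration at half of the fitted maximal effect; nearly all actives have a fitted effect of over 60% in size; about a fifth of the inactives were tested at one dose only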
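Cells in DMEM/10% FBS with G418 were pretreated with compounds in DMSO plus […] (300 uM stock) for 30 min at 37C. cAMP was measured by HTRF (cAMP-d2 plus anti-cAMP antibody-K) after 30 min at room temperature.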
TRPV1 PAM: enhances activation of the human vanilloid receptor TRPV1; Q8NER1; 0.02% of 320,000 active; TRPV1-expressing cells, Fluo-8 calcium influx, capsaicin EC20 potentiation; host cell line not named in the record; control for the full effect not named in the record; potentiation, % at 8.33 µM; active means potentiation above 80%; inconclusive means 30% to 80%; inactive means below 30%; further: 0% is about no effect
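Cells expressing TRPV1 were dye-loaded with Fluo-8 and read kinetically: 10 s baseline, 3 min after compound (agonist portion), then 2 min after EC20 capsaicin (allosteric enhancer portion). Calcium-bound dye fluorescence at 480/520 nm.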
ClpP mod: qHTS Assay for Activators of ClpP; ATP-dependent Clp protease proteolytic subunit (Bacillus subtilis (strain 168)), P80244; purified B. subtilis ClpP, FRET peptide cleavage, 20 min; Potency, µM (highest dose often 57.5 µM), for inactives: at the top dose activity change, negative = active; 1.9% of 340,000 active; AID 651965, 2013; active = well fitted falling curve with a large enough effect; inconclusive = small, poorly fitted or top-dose-only effect; inactive = no such curve, though single readings can be large or run the other way; further: potency means the concentration at half of the fitted maximal effect; the source files actives as falling curves though it sought activators and does not explain the sign; nearly all actives have a fitted effect of over 65% in size; many hits overshoot -100%
Target sequence (P80244 whole entry, looked up): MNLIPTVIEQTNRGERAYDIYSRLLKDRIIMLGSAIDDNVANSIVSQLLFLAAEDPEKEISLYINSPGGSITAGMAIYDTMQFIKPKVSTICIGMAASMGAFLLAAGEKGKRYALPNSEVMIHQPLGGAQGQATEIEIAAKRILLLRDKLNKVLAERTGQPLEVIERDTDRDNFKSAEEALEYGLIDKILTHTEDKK
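Buffer: 100 mM Tris/HCl pH8, 100 mM KCl, 0.05% low protease BSA, 2.5% glycerol, 0.01% Tween-20. ClpP 10 microg/mL final; 20 min RT; delta FRET normalized to ADEP and DMSO controls.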
Sfp inh: Sfp phosphopantetheinyl transferase inhibition; Q9F4F7; Biochemical Sfp PPTase activity, qHTS; Potency, µM, for inactives: max response, negative = inhibition, most hits filed as inhibitors; 3.5% of 310,000 active; active means well fitted inhibition curve with a large enough effect; inconclusive means small, poorly fitted or top-dose-only effect, or another doubt; inactive means no such curve, though single readings can be large or run the other way;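 further: the enzyme is Sfp with the accession as filed and its product quenches rhodamine fluorescence; potency means the concentration at half of the fitted maximal effect; 0% = enzyme reaction without inhibitor and -100% = no enzyme wells; top concentration of the series not given in the record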
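After 15 min at room temperature with compound, 15 nM Sfp received 5 uM rhodamine-CoA plus 12.5 uM BHQ-2-ybbR (50 mM Hepes pH 7.6, 10 mM MgCl2). Rate came from the fluorescence difference over 30 min, ex 525/em 598 nm.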
Menin MLL FP FL: displaces fluorescein MLL peptide from human menin; Fluorescence polarization, fluorescein-MLL peptide displacement from menin; FP activity change, % at 61.4 µM; 290,000 tested, under 10 active; inconclusive = falling polarisation curve, or a change in total fluorescence; inactive = total fluorescence flat and polarisation flat or rising; no compound was filed as active; the % refers to the polarisation; negative = inhibition;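 further: % of control where 0% means no effect; inhibitors lower the polarisation; unlabelled MLL peptide was the positive control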
Numbers without * were called inactive; u = inconclusive; x = no result given; & = joins results of further samples; [ ] = remark or other dose. Random draw from the library; 4.9% or so of the library scored in one or more.

SMILES	gsp antag	TRPML1 inh	gsp ag	TRPV1 PAM	ClpP mod	Sfp inh	Menin MLL FP FL
COc1cccc(N=c2oc3c(C)ncc(CO)c3cc2C(=O)Nc2ccccc2OC)c1	x	x	x	7	x	19%	-1.4
Cc1ccccc1-c1cccc([C@@H]2C[C@H]3[C@H](CON3C)CN2S(=O)(=O)c2ccccc2C)c1	u	58	x	x	2.3%	x	x
COc1ccccc1NC(=O)CSc1nc2[nH]ncc2c(=O)[nH]1	11%	-2	0%[15.4 µM]	-5	x	x	x
O=C(CN1CCOCC1)Nc1c(-c2ccccc2)c2cc(Br)ccc2[nH]c1=O	-8%	-12	-12%	-2	-5.1%	1%	0.0
O=C(COC(=O)CCC(=O)c1cccs1)Nc1ccc(F)c(F)c1F	4%	-3	-14%	x	1.2%	x	x
O=C(Nc1nccs1)c1ccc2ccccc2n1	-12%	5	3%	-20	x	-3%	-19
CCCCN(C)C(=O)c1cc2cc3ccc(OC)cc3nc2o1	-6%	16	-3%	-5	3.9%	-6%	-5.4
CC1Oc2ccccc2N(CC(=O)N2CCc3ccccc32)C1=O (configuration not stated)	-2%	-5	-75%[inhibitor]	9	-3.1%	6%	-1.4
O=C(CN1C(=O)S/C(=C/C=C/c2ccccc2)C1=O)Nc1ccc(C(=O)O)cc1	-17%	-11	20%	11	x	-7%	-1.4
COc1ccc(S(=O)(=O)Nc2ccc3c(c2)C(=O)N([C@H](C)CO)C[C@H](C)[C@@H](CN(C)S(=O)(=O)c2ccc(OC)cc2)O3)cc1	-7%	-10	x	x	-0.2%	x	x
CC1CCCC(C)N1CCCNC(=O)Cn1ncc2c3ccccc3n(C)c2c1=O (configuration not stated)	9%	-9	u	9	4.2%	6%	x
C=CCN1C=C2C(=O)C(C)(OC(=O)c3cccs3)C(=O)C=C2C=C1CCCC(=O)OC (configuration not stated)	3%	-21	-26%	-15	-2.3%	0%&-8%	1.0[11.7 µM]
COCCN(C(=O)c1snc(C(N)=O)c1N)C(C(=O)NC1CCCC1)c1cc(OC)c(OC)c(OC)c1 (configuration not stated)	8%	-13	4%[15.4 µM]	3	x	-2%	-2.6
CN(CCC1CCOCC1)C(=O)CC1C(=O)NCCN1Cc1cccc(F)c1 (configuration not stated)	6%	4	-31%[inhibitor]	2	-9.5%	19%	x
O=C(NCC1CCCN1S(=O)(=O)c1cccs1)c1ccc(F)cc1 (configuration not stated)	3%	-15	34%	20	u	x	x
CCOC(=O)C1=C(COC(=O)/C=C/c2ccc(OC)c(OC)c2)NC(=O)NC1C (configuration not stated)	-4%	-13	-36%[inhibitor]	-17	u	x	x
CCCCN1CC(C)(C)Oc2cccc(F)c2S1(=O)=O	-2%	10	x	x	0.6%	x	x
C=CCOc1ccc(/C=C/C(=O)Nc2ccc(C(=O)NC)cc2)cc1	9%	9	-5%	-3	4.6%	-6%	2.7
Cc1cc(C(=O)Nc2c(C)nn(Cc3ccccc3)c2C)on1	7%	12	-9%	2	0.2%	18%	2.3
O=C(NCCCN1CCCCC1)C1CCN(c2ncnc3c2nc2n3CCCCC2)CC1	18%	17	u	-4	-0.4%	12%	-4.0
COc1ccc(C2CC(c3ccccc3OC(C)=O)=NN2C(=O)/C=C/c2ccccc2)cc1OC (configuration not stated)	-17%	7	-34%	-1	-2.4%	-7%	0.8
O=C(NCc1ccccc1)NS(=O)(=O)c1ccccc1Cl	-7%	-8	-13%	u	2.4%	4%	0.4
Cc1ccccc1Nc1c(-c2ccccn2)nc2ccccn12	-6%	7	-3%	-11	-5.6%	-39%	1.2
CSc1ccc(Cl)c(C(=O)NNC(=O)c2cccs2)c1	15%	1	12%	x	x	x	x
Cc1[nH]c2ccccc2c1C(=O)/C=C/c1ccccc1	-29%	20	22%	8	1.2%	5%	1.1

Next part
SMILES	gsp antag	TRPML1 inh	gsp ag	TRPV1 PAM	ClpP mod	Sfp inh	Menin MLL FP FL
O=C(CSC1=NCCS1)Nc1nc2ccccc2s1	-15%	-8	u	-3	0.8%	16%	4.1
CCOc1ccc(OCc2cccc(C(=O)N(CC)CC)c2)cc1	-9%	-9	-5%[15.4 µM]	0	x	12%	-1.4
CCc1cc(C(=O)Cc2nc3ccccc3[nH]2)c(O)cc1O	4%	-3	-14%	1	u	-2%	1.8
CCOc1ccc(NC(=O)Nc2cc(C)on2)cc1	6%	12	-6%	-4	1.6%	-5%	1.4
CCCCOC(=O)CSC1=C(C#N)C(c2ccccc2OCC)C(C#N)C(=O)N1 (configuration not stated)	32µM*	-3	29%	-1	-23%	-9%	12
CS(=O)(=O)N(CC(=O)N1CCN(Cc2ccccc2)CC1)c1cccc(F)c1	-5%	-1	-83%[inhibitor]	0	x	-4%	-1.1
Cn1c(-c2ccccc2)cnc1NCc1cc2c(cc1[N+](=O)[O-])OCO2	6%	-2	10%[15.4 µM]	-3	0.6%	56µM*	13
c1ccc(CC(Nc2ccccn2)c2ccccc2)cc1 (configuration not stated)	-2%	25	-4%[15.4 µM]	1	x	u	-2.9
Clc1cccc(Cc2nn[nH]n2)c1	1%	18	-2%	5	1.9%	7%	-1.2
COc1ccc(C2c3[nH]c4ccccc4c3C[C@H]3C(=O)N(CC(C)C)CC(=O)N23)c(OC)c1 (some centres not stated)	9%	0	0%[15.4 µM]	4	-2.5%	0%	2.5
Nc1nc(Nc2ccccc2Br)nc(C(F)(F)F)n1	-3%	-8	-112%[inhibitor]	15	-14%	14%	2.0
Cc1cnc(C(=O)Nc2ccc(C(=O)N3CCCCC3)cc2)cn1	-6%	54	-8%	-12	-4.6%	13%	2.5
O=C(NCc1cccs1)C1CCCN(C(=O)Nc2ccc(F)cc2)C1 (configuration not stated)	-7%	3	18%[15.4 µM]	-4	-3.2%	0%	-0.9
COc1ccc(CNS(=O)(=O)c2ccc3oc(C(=O)O)c(C)c3c2)cc1	1%	10	-5%	7	-10%	16%	2.8
Cn1c(=O)c2c(nc(N3CCC(C(N)=O)CC3)n2CCSc2nc3ccccc3s2)n(C)c1=O	-9%	5	-8%	-3	-15%	29%	-1.1
COC(=O)[C@]1(C)N[C@H](CN(C)C(=O)c2ccc(C(C)(C)C)cc2)[C@@H]2C(=O)N(Cc3ccccc3)C(=O)[C@@H]21	6%	-4	x	x	-0.2%	x	x
CSc1ccccc1NC(=O)C1CCCN(S(C)(=O)=O)C1 (configuration not stated)	4%	-13	19%	-3	x	8%	2.1
Cc1cc(N)ccc1-n1nc2ccccc2n1	3%	-14	12%	x	x	x	x
CC(NC(=O)c1ccc(Br)o1)c1ccc(-n2ccnc2)cc1 (configuration not stated)	4%	-6	-4%	x	x	x	x
C=C1CCC[C@]2(C)C[C@H]3OC(=O)C(CN(Cc4ccc(OC)c(OC)c4)CC(C)O)[C@H]3CC12 (some centres not stated)	-13%	-8	u	20	-1.2%	10%	u
O=C(COc1coc(CN2CCCc3ccccc32)cc1=O)Nc1ccccc1	7%	-11	-3%[15.4 µM]	7	-0.4%	x	x
CCCCSc1nnc(CSc2ncccn2)n1C	-2%	13	1%[15.4 µM]	9	x	1%	-0.4
COC(=O)c1ccccc1COn1c(=O)c[n+]([O-])c2ccccc21	8%	21	20%	4	-5.5%	20%	16
COC(=O)c1cnc[nH]1	7%	36	x	-6	-1.2%	29%	-0.6
CC[C@]12c3[nH]c4ccccc4c3CCN1C(=O)C(CC(=O)NCCc1ccccn1)C[C@@H]2C(=O)N1CCN(C(=O)c2ccco2)CC1 (some centres not stated)	3%	9	x	x	-24%	x	x

(more compounds)
SMILES	gsp antag	TRPML1 inh	gsp ag	TRPV1 PAM	ClpP mod	Sfp inh	Menin MLL FP FL
CCc1ccc(Nc2nc3ccccc3c(=O)s2)cc1	5%	30	-11%	-1	2.0%	-14%	6.2
CC(c1ccco1)N(C(=O)c1cccc(Br)c1)c1ccccn1 (configuration not stated)	-34%	-7	7%[15.4 µM]	-2	1.3%	15%	-4.9
Cc1ccc(/C=C/C(=O)OC(C)C(=O)Nc2ccc(Cl)cn2)o1 (configuration not stated)	0%	3	-26%	7	-16%	-95%	19
O=C(c1cccc(Cl)c1)N1CCN(Cc2ccncc2)CC1	0%	0	18%	-7	-2.6%	-3%	2.4
O=C(C1=C(O)C(=O)N(Cc2cccnc2)C1c1cccc(Oc2ccccc2)c1)c1ccco1 (configuration not stated)	-3%	-10	u	x	0.5%	x	x
O=C1N[C@@H](Cc2ccccc2)COC(=O)[C@H](Cc2ccc(F)cc2)CC/C=C/C[C@H]1CC(=O)N(CCO)Cc1ccccc1	u	17	-36%[inhibitor]	x	-2.0%	x	x
Cc1ccc(OCCC(=O)Nc2ccc(S(=O)(=O)Nc3nccs3)cc2)cc1	-5%	u	-37%[inhibitor]	18	-3.3%	x	x
CC[C@H](C)[C@H](NC(N)=O)C(=O)NCCc1ccc(Cl)cc1Cl	-13%	20	11%[15.4 µM]	1	x	8%	-0.1
COc1ccc2c(c1)Cc1sc(NC(=O)c3cccs3)nc1-2	-21%	0	-26%	0	1.4%	25µM*	8.0
CC12CCC(C(=O)C1)C1(C)CCCC(=O)C21 (configuration not stated)	3%	-3	-25%	x	-3.0%	x	x
CC(C)/C=C/C(=O)N1CCC(N2CCC(C(=O)NCc3ccccn3)CC2)CC1	1%	-11	-35%[inhibitor]	-17	-7.4%	10%	x
Cn1cc(C(=O)C(=O)NC2CCCCC2)c2ccccc21	50µM*	11	26%	-17	-1.0%	-2%	x
COc1cccc(N(C(=O)Cn2nnc(-c3ccc(F)cc3)n2)C(C(=O)NCC2CCCO2)c2ccc(Cl)cc2)c1 (configuration not stated)	-2%	8	-9%	4	1.5%	11%	-2.1
CC(=O)NCCc1ccc(C(=O)CSc2nnc(C3CC3)n2C2CC2)cc1	2%	-7	-1%	11	0.8%	x	x
CCOC(=O)Cc1csc(NC(=O)CSc2nc(-c3ccccc3)c(C#N)c(=O)[nH]2)n1	7%	-6	u	4	x	20%	-3.2
